Screening results as filed in PubChem BioAssay.
PINK1 expr mod = changes PINK1 expression | PINK1 immunofluorescence, high-content cytometry, 24 h | Potency, µM (series often up to 76.6 µM), for inactives: at the highest dose activation (PINK1 increase), most hits filed as activators | hit rate 0.2% among 410,000 | AID 624263; active = well fitted activation curve with a large enough effect; inconclusive = small, poorly fitted or top-dose-only effect; inactive = flat fitted curve, though single readings scatter; cell line not stated here;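 note: potency is the fitted concentration of half-maximal effect; % of control where 0% means no effect; nearly all actives have a fitted effect of over 65% in size; a mitochondrial uncoupler was the plate control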
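PINK1 protein, normally rapidly degraded, was detected by immunofluorescence after 24 hour compound treatment of a stable cell line. Titration data (5 concentrations) came from laser-scanning cytometry, with CCCP-treated wells as controls.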
Six1-Eya2 blk = inhibitors of human Six1/Eya2 interaction | activity change, % (no concentration beside the values) | AlphaScreen GST-Six1/His-Eya2 binding, biochemical; hits give low values; control for the full effect not named in the record | Q15475+O00167 | hit rate 0.56% among 360,000; in the data active = activity change below about -65%; inconclusive = about -30% to -65%; inactive = above about -30%; note: % is set by controls: 0 for no effect and ±100 for the full control effect; compound concentration not given in the record
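Compounds are tested against tagged Six1 and Eya2 proteins bridged by glutathione donor and nickel acceptor beads; after a one-hour incubation at 37 °C without light, AlphaScreen emission is recorded.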
TRPML1 inh = blocks the human TRPML1 channel; Q9GZU1; TRPML1-inducible cells, Ca2+ dye fluorescence, FDSS; hits give low values; inhibition of EC80 agonist-evoked calcium signal; AID 624415; hit rate 0.02% among 390,000; activity change, negative = inhibition, % (concentration not given with the values); in the data active means activity change below about -50%; inconclusive means about -30% to -50%; inactive means above about -30%;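 note: stimulus is agonist 54-4 at its EC80 concentration; % is set by controls: 0 for no effect and ±100 for the full control effect; compound concentration not given in the record; the text of the record puts the active cut at -80%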
Target sequence (Q9GZU1 whole entry, looked up): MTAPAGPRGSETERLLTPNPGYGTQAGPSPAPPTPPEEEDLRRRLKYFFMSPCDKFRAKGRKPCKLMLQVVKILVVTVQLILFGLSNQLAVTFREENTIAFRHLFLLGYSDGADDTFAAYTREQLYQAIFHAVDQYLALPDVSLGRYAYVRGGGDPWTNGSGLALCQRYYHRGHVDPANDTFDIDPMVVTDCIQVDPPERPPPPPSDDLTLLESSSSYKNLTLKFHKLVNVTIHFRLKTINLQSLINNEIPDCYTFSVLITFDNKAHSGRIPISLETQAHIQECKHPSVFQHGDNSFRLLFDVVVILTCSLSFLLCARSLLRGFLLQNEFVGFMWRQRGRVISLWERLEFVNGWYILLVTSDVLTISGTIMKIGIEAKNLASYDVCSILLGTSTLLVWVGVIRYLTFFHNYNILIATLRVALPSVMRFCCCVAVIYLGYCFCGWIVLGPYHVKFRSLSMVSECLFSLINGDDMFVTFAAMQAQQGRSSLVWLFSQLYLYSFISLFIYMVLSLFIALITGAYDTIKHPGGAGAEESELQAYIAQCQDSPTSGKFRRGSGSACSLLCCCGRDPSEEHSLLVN
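TRPML1-DL cells, Tet-induced overnight (~16 h, 37 °C) at 1,500 cells/well, were loaded with Ca8 no-wash dye plus quencher for 45-90 min at room temperature. Compounds were pinned during FDSS kinetic reading; agonist 54-4 at EC80 (4 uM final) then added.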
D2 agonist = activates the human D2 dopamine receptor; P14416; DiscoveRx PathHunter D2 beta-arrestin, luminescence, 90 min; 100% = 57 uM dopamine signal; activation, % (no concentration beside the values); hit rate 0.084% among 360,000; AID 624465; in the data active = activation above about 40%; inconclusive = about 15% to 40%; inactive = below about 15%; note: compound concentration not given in the record; the text of the record calls up to 30% inactive
Target sequence (P14416 whole entry, looked up): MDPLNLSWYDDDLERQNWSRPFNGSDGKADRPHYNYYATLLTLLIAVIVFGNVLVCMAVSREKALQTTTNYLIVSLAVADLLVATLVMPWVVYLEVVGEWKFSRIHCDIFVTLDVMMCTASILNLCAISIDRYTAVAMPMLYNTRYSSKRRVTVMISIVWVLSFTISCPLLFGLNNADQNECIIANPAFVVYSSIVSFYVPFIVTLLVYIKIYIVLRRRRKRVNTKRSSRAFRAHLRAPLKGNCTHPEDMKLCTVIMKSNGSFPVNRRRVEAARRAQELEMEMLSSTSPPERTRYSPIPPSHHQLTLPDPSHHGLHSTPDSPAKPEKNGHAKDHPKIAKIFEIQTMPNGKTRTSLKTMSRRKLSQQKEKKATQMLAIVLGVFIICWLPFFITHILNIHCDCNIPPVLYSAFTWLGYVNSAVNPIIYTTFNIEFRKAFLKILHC
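DiscoveRx PathHunter D2 beta-arrestin cells (2,100/well) attached overnight, then compound-stimulated 90 min at 37 C in HBSS/10 mM HEPES/0.1% Tween-20 buffer; beta-galactosidase complementation read by luminescence after 1 h at ambient temperature. Dopamine 57 uM final (EC100) as control.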
TRPML1 agonist = agonists of human TRPML1 channel; TRPML1-expressing cells, Ca2+ dye fluorescence, FDSS; host cell line not named in the record; reference of the full effect not given here; Q9GZU1; hit rate 0.12% among 410,000; AID 624414; activation, % (test concentration not listed); in the data active = activation above about 50%; inconclusive = about 30% to 50%; inactive = below about 30%; note: 0% is about no effect; the text of the record puts the active cut at 80%
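Kinetic FDSS Ca2+ read in Tet-induced TRPML1-DL cells (ABD Ca8 dye plus quencher, 45-90 min RT loading): baseline, then compound, then 110 s agonist window; EC80 agonist 54-4 at 4uM final added afterwards for a 110 s antagonist window.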
D2 potentiator = human D2 receptor positive allosteric modulation | P14416 | DiscoveRx D2 beta-arrestin cells, luminescence, 90 min; 100% = 57 uM dopamine signal | potentiation, % (concentration not given with the values) | hit rate 0.23% among 360,000 | AID 624464; active = potentiation of 50% or more; inconclusive = 30% to 50%; inactive = 30% or less;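 note: compound concentration not given in the record; tested on top of an EC20 dose of dopamine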
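PathHunter D2 cells, attached overnight at 37 deg C, received compound in DMSO plus dopamine at EC20 (50 nM final) for 90 min at 37 deg C. Beta-arrestin recruitment was read as luminescence after 1 h with detection reagent at ambient temperature.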
The depositor's hits bear a star; ? = inconclusive; · = no result given; [ ] = remark or other dose.

entry	Compound	PINK1 expr mod	Six1-Eya2 blk	TRPML1 inh	D2 agonist	TRPML1 agonist	D2 potentiator
1	N#Cc1cc2c(=O)n3ccccc3nc2n(Cc2cccnc2)c1=O	0.6%	4	-8	0.5	0.7	2
2	Cc1ccc(S(=O)(=O)Nc2ccc(C(N)=O)cc2)cc1[N+](=O)[O-]	-0.7%	-1	-6	-1.1	-0.9	-4
3	Cc1cccc(NC(=O)CSc2nc3n[nH]c(C)c3c(=N)n2-c2cccc(Cl)c2)c1	3.0%	·	-13	·	2.9	·
4	CC(=O)c1cccc(N=Nc2c(-c3ccccc3)[nH]n(-c3ccccc3)c2=O)c1	4.0%	-16	10	-0.8	-0.5	-4
5	CCN(CC)CCCn1c2c(c(SCC(=O)N3CCc4ccccc43)nc1=O)CCC2	-1.0%	-3	7	-0.6	-0.1	-14
6	O=C(NNS(=O)(=O)c1ccc(Cl)cc1)c1cnn(-c2ccccc2)c1-n1cccc1	2.2%	-5	5	0.3	0.6	-1
7	COc1cccc(NC(=O)CSc2nc3scc(C)c3c(=O)[nH]2)c1	4.0%	-4	1	1.7	3.9	-6
8	CC(OC(=O)CCN=C1NS(=O)(=O)c2ccccc21)C(=O)N(C)c1ccccc1 (configuration not stated)	-0.4%	2	-9	4.8	-0.3	-1
9	Cc1ccsc1/C=C(\C(=O)c1ccc(OC(C)C)cc1)c1nc2ccccc2o1	2.8%	-8	-3	-2.0	4.0	-12
10	FC(F)(F)c1cccc(NC(=S)NCC2COc3ccccc3O2)c1 (configuration not stated)	?	16	5	2.8	1.8	-11
11	O=C1CCC(c2ccc3c(c2)CCC3)=NN1	-0.9%	-2	2	-8.7	-0.1	-3
12	CCCCn1nnnc1SCC(=O)c1ccccc1F	-0.1%	-1	-8	-4.3	1.5	-1
13	O=C(NCC(=O)N1CC=C(c2ccccc2)CC1)c1ccco1	0.3%	3	-4	5.5	0.1	-14
14	Cc1nc2ccc(NC(=S)NC3CCCCC3)cc2nc1C	-0.6%	0	-7	-2.8	-0.2	-14
15	COc1ccccc1NC(=O)c1ccc(C(=O)c2ccccc2)o1	0.6%	-16	6	-5.7	0.2	-3
16	CCOc1ccc(N2C(=O)Cc3ccccc3C2=O)cc1	0.9%	12	-20	-2.7	0.4	-3
17	O=C(CSc1cccc2cccnc12)Nc1ccccc1F	-1.5%	?	-16	-5.6	1.3	0
18	O=CN(CCNc1ccccc1)c1ccccc1	-2.3%	10	-6	-1.1	1.6	6
19	COCCNC(=S)NCCc1ccc(Cl)cc1Cl	6.3%	-2	6	-7.4	0.3	0
20	Cc1cccc(OCCCCCn2ccnc2)c1C	1.6%	-6	-1	-1.9	0.8	13
21	CCSc1ccc2nnc(-c3cccs3)n2n1	-1.7%	?	-1	-3.2	0.0	-4
22	CC(OC(=O)Cc1n[nH]c(=O)c2ccccc12)C(=O)Nc1ccc(F)cc1 (configuration not stated)	2.2%	-7	-8	-1.6	-0.3	2
23	Cc1cc(C)cc(N(CC(=O)O)S(=O)(=O)c2c(C)[nH]c(=O)[nH]c2=O)c1	2.6%	13	4	-4.3	0.9	2
24	COc1cc(/C=C/C(=O)OCC(=O)N(C)Cc2ccccc2)cc(OC)c1OC	2.0%	5	3	-1.9	-0.9	-3
25	CCOC(=O)N/N=C/c1c(F)c(F)c(F)c(F)c1F	-1.4%	15	1	-1.5	-0.2	-4

One compound at a time (already shown). Order of screens: PINK1 expr mod, Six1-Eya2 blk, TRPML1 inh, D2 agonist, TRPML1 agonist, D2 potentiator
CC(OC(=O)CCN=C1NS(=O)(=O)c2ccccc21)C(=O)N(C)c1ccccc1 (configuration not stated) reads -0.4%, 2, -9, 4.8, -0.3, -1
Cc1nc2ccc(NC(=S)NC3CCCCC3)cc2nc1C reads -0.6%, 0, -7, -2.8, -0.2, -14
COCCNC(=S)NCCc1ccc(Cl)cc1Cl reads 6.3%, -2, 6, -7.4, 0.3, 0
Cc1cccc(NC(=O)CSc2nc3n[nH]c(C)c3c(=N)n2-c2cccc(Cl)c2)c1 reads 3.0%, ·, -13, ·, 2.9, ·
Cc1ccc(S(=O)(=O)Nc2ccc(C(N)=O)cc2)cc1[N+](=O)[O-] reads -0.7%, -1, -6, -1.1, -0.9, -4

(next part)
entry	Compound	PINK1 expr mod	Six1-Eya2 blk	TRPML1 inh	D2 agonist	TRPML1 agonist	D2 potentiator
26	COc1ccc(CNS(=O)(=O)CCNCc2ccccc2OC)cc1	0.0%	1	7	-2.9	0.3	-19
27	CC(C)(C)c1cc2nc(NCCc3ccc(S(N)(=O)=O)cc3)ccn2n1	0.0%	9	·	4.0	0.1	1
28	Oc1ccccc1-c1cc(-c2ccc(Cl)cc2)n[nH]1	2.9%	6	-13	5.4	0.6	-12
29	CN(C)S(=O)(=O)c1cccc(NC(=O)COC(=O)/C=C/c2cccs2)c1	0.7%	-7	-2	?	4.3	-7
30	CCOC(=O)CSc1nc2cc(OC)ccc2cc1C#N	5.0%	10	-11	-1.9	0.0	-8
31	COc1ccc(CNCC(O)(c2ccc(F)cc2)c2ccc(F)cc2)cc1	11%	-16	-10	5.0	0.0	-15
32	COc1cc(NC(=O)COCc2cc(-c3ccc(F)cc3)on2)cc(OC)c1OC	-1.0%	·	4	·	1.7	·
33	Cc1nn2c(=O)cc(COC(=O)c3ccc(NC(=O)COc4ccccc4F)cc3)nc2s1	4.2%	·	-5	·	1.0	·
34	Cc1nnc(SCC(C)C)[nH]c1=O	3.3%	5	-17	-2.8	1.4	-12
35	Nc1ccc(C(CC(=O)O)n2cccc2)cc1 (configuration not stated)	-0.6%	-3	7	-2.9	0.0	0
36	Cc1ccc2c(c1)c1c3n2CCN(C(=O)C2CC2)C3CCC1 (configuration not stated)	0.3%	-16	9	3.9	-0.9	14
37	CC(=O)c1cccc(OCc2cc(C(=O)NCCC3=CCCCC3)no2)c1	2.2%	3	11	-3.1	-0.3	-6
38	Cc1[nH]ncc1-c1nc2ccccc2[nH]1	1.0%	-3	9	-4.8	1.0	-2
39	CCOc1ccccc1-n1nnnc1SCC(=O)NCC1(N2CCOCC2)CCCCC1	-0.1%	8	-28	-2.9	0.7	2
40	N/C(=N\c1nc(CSc2nc3ccccc3s2)cc(=O)[nH]1)Nc1ccc(F)cc1	8.8%	3	-3	-3.7	-0.1	-15
41	CCn1c(C)nnc1SCC(=O)Nc1ccc2c(c1)OCCO2	1.3%	-4	18	-7.1	0.6	-8
42	Cc1ccccc1OCCN(C#N)c1nc(N(C)C)nc(N(C)C)n1	2.3%	1	-19	-2.9	3.0	-9
43	Cc1nc(C)c(C(=O)NNS(=O)(=O)c2ccc([N+](=O)[O-])cc2)s1	-0.3%	0	-8	-1.3	0.4	8
44	O=C(CSc1nnc(CNc2ccccc2)o1)N1CCCc2ccccc21	1.4%	-3	15	1.9	-0.5	-9
45	CCc1ccc(NC(=O)C(C)Sc2ccc(S(=O)(=O)N3CCN(C)CC3)cn2)cc1 (configuration not stated)	0.6%	7	-11	0.2	-0.3	-3
46	C=C(C)Cn1c(=O)c2c(nc3n2CCN3c2ccc(CC)cc2)n(C)c1=O	3.2%	·	-4	·	0.0	·
47	CC(=O)c1ccc(S(=O)(=O)Nc2ccc(-c3cn4c(C)csc4n3)cc2)cc1	-5.2%	·	-12	·	1.8	·
48	NC1=NC(=O)/C(=C\c2ccc(O)c([N+](=O)[O-])c2)S1	1.2%	-76*	10	-7.2	1.1	-18
49	CCOC(=O)CNC(=O)Cn1cnc2c(cnn2-c2ccc(C)cc2)c1=O	1.2%	-8	-24	6.3	0.0	-8
50	O=C(CSc1nnc(Cc2ccccc2)o1)N1CCOCC1	·	-1	-7	-0.5	0.0	-17
51	COc1cccc(N2CCN(C(=O)c3oc4ccccc4c3NC(=O)Cc3ccc(OC)c(OC)c3)CC2)c1	2.2%	?	-2	-6.5	-0.5	-20
52	CCOC(=O)N1CCN(C(=O)CCc2ccc(S(=O)(=O)NC(C)(C)C)cc2)CC1	2.0%	0	12	-4.0	-0.1	-6
53	Nc1ccc2nc(C(F)(F)F)[nH]c2c1	-0.6%	5	-1	-1.2	1.9	-4
54	COc1ccc(OCCN(C)CC(=O)Nc2c(C)cccc2C)cc1	0.3%	0	-1	-3.5	-1.5	-11
55	CCN(CC)CCN(C(=O)c1ccc(S(=O)(=O)N2CCCC2)cc1)c1nc2cc(C)cc(C)c2s1	0.3%	-3	-6	-2.7	0.1	-23
56	Cc1nc(-c2cccc(NC(=O)c3ccc(Br)o3)c2)cs1	1.1%	-1	-5	-1.6	0.6	-10
57	Cc1ccc(NC(=O)c2cccs2)cc1	-0.5%[38.3 µM]	-1	-6	-0.5	-0.3	-11
58	COn1c(-n2nc(C)cc2C)nc2ccccc2c1=O	2.4%	-1	28	-2.3	-0.8	-5
59	COC(=O)[C@H](Cc1ccccc1)NC(=O)NCc1ccccc1OC	4.4%[38.3 µM]	4	-6	-0.2	3.2	12
60	COc1cc(C2C3=C(Nc4ncnn42)c2ccccc2CC3)cc(OC)c1OC (configuration not stated)	6.6%	-14	0	-2.3	0.0	7
61	COc1cc(C2/C(=C(\O)c3ccc4c(c3)CC(C)O4)C(=O)C(=O)N2CCCn2ccnc2)cc(OC)c1OC (configuration not stated)	0.8%	4	-4	-3.0	-0.5	-4
62	COc1ccc(CNC(=O)Cn2cnc3c(=O)n(C)c(=O)n(C)c32)cc1	1.1%[38.3 µM]	-1	-8	-0.5	2.5	6
63	CCCOc1ccc(N2C(=O)CC(SCc3nc4ccccc4[nH]3)C2=O)cc1 (configuration not stated)	-1.1%	-4	-7	-1.9	-0.3	-16
64	COc1ccc2c(c1)c(N1CCCC1=O)c(C(=O)Nc1ccc(OC)c(Cl)c1)n2C	-0.4%	·	10	·	0.5	·
65	CCOc1ccc(-c2nc(CN3CCCC(C(=O)N4CCOCC4)C3)c(C)o2)cc1 (configuration not stated)	0.6%	7	-7	-4.7	0.8	-14
66	CCCCN(C)c1c(C)nc2ccc(C(=O)NC3CCN(C)CC3)cn12	-0.3%	4	·	-6.4	-0.1	-8
